# HPGD inh – qHTS Assay for Inhibitors of HPGD (15-Hydroxyprostaglandin Dehydrogenase). 15-hydroxyprostaglandin dehydrogenase [NAD(+)] (Homo sapiens), P15428. purified HPGD, NADH fluorescence kinetic, PGE2 substrate. Potency, µM, for inactives: at the highest dose activity change, negative = inhibition, usual class: inhibitors. 150,000 compounds, 4.3% hits. AID 894, 2007; active = well fitted inhibition curve with a large enough effect (not every such curve was filed as active); inconclusive = small, poorly fitted or top-dose-only effect, or another doubt; inactive = no such curve, though single readings can be large or run the other way;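 also: top concentration of the series not given in the record; plate controls included wells without enzyme; inactives centre near -10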
# Target sequence (P15428 whole entry, looked up): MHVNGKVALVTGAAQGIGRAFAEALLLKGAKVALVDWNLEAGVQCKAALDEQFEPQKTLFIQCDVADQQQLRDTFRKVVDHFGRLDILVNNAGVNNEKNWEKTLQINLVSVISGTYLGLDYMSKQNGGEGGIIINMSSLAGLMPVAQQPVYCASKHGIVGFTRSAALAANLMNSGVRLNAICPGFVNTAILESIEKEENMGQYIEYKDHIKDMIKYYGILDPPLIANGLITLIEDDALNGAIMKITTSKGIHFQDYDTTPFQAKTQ
#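 NADH formation kinetics: reaction with 30 uM PGE2 and 1 mM NAD+ (final), 20 nM enzyme, Tris-HCl pH 8 with Tween 20, after 15 min compound preincubation at room temperature. Fluorescence change, last versus first of five reads.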
# * hit, by the source's call; ? = inconclusive; & = joins results of further samples. % is scaled to controls: 0 for no effect and ±100 for the full control effect; potency is read from the fitted curve at half-maximal effect. Some of the compounds tested, so the mix of outcomes need not match the whole.
mol	HPGD inh
CCOC(=O)C(CCc1ccccc1)NC1CCc2ccccc2N(CC(=O)O)C1=O (configuration not stated)	-8%
C[C@]12C=CC(=O)C=C1CCC1C2C(O)C[C@]2(C)C1CC[C@]2(O)C(=O)CO (some centres not stated)	-6%
O=C(Cc1noc2ccccc12)Nc1ccccn1	-11%
NC(=O)CN1CCN(c2ccccc2F)CC1	1%
COc1ccc(OCc2ccc(C(=O)N3CCOCC3)cc2)cc1	7.9µM*
Cc1ccc(CNC(=O)c2ccc3c(=O)n(CCCN4CCCC4=O)c(=S)[nH]c3c2)cc1	-26%
Cc1cccc(N2C(=O)SC(N(CC(=O)O)c3cccc(C)c3)C2=O)c1 (configuration not stated)	-14%
COC(=O)[C@@]1(Cc2ccc(OC)cc2)[C@H]2c3cc(C(=O)N4CCCC4)n(Cc4ccc(Cl)c(C(F)(F)F)c4)c3C[C@H]2CN1C(=O)c1ccccc1	-9%

# (next part)
mol	HPGD inh
CC(C)(C)C(=O)OCC1OC(n2cnc(C(N)=O)n2)C(O)C1O (configuration not stated)	-2%
CN(C(=O)c1cc2nc(-c3ccco3)cc(C(F)(F)F)n2n1)C1CCCCC1	?
CCC(=O)N1c2ccc(S(=O)(=O)CCC(=O)NCc3ccc4c(c3)OCO4)cc2CC1C (configuration not stated)	-5%
Cn1c2ccccc2n2c(=O)c(=O)n(CC(=O)c3ccc(Cl)cc3)nc12	-15%
COC(=O)CCC(NC(=O)c1cc(-c2ccc3c(c2)OCCO3)oc1C)C(=O)OC (configuration not stated)	-20%
Cc1c(S(=O)(=O)N2CCc3ccccc3C2)c(=O)n(C)c(=O)n1C	-1%
Cc1cc(C(=O)NNC(=S)NC(=O)/C=C/c2ccccc2Cl)n[nH]1	?
N#Cc1ccccc1NC(=O)CSc1nnc(-c2ccc(F)cc2)n1-c1ccccc1	-13%

# (next part)
mol	HPGD inh
O=C1Nc2ccccc2[C@]1(O)Cc1ccccn1	2%
CCOC(=O)CS(=O)(=O)c1ccc(C(F)(F)F)cn1	-4%
O=c1[nH]c2cc3c(cc2cc1C(c1nnnn1C1CCCC1)N1CCCc2ccccc21)OCCO3 (configuration not stated)	-15%
COc1ccc2[nH]c3c(NCc4ccco4)ncnc3c2c1	?
C/C(=N\NC(=O)c1cc(C(C)C)[nH]n1)c1ccco1	22µM*
O=C(COC(=O)CC1c2ccccc2CCN1S(=O)(=O)c1ccc(F)cc1)Nc1ccccc1 (configuration not stated)	-17%
CCCc1nc2sc3c(c2c(=O)n1NC(=O)CCC(=O)O)CCCC3	-1%
CC(C)(C)NS(=O)(=O)c1ccc(CCC(=O)N2CCOCC2)cc1	-22%

# Following part.
mol	HPGD inh
CCOC(=O)CSC1=C(C#N)C(C)C2=C(CCCC2=O)N1 (configuration not stated)	-14%
CCOc1ccc(-c2csc(N)c2C(=O)OC)cc1	14µM*
COc1ccc(-c2nn(-c3ccccc3)cc2/C=N/n2cnnc2)cc1OC	-24%
NCC(O)C1CCCCCCC1 (configuration not stated)	-14%
Cc1nn(C)c(C)c1S(=O)(=O)N1CCC(C(=O)NCCC2=CCCCC2)CC1	-5%
CCCCC(=O)NCCc1ccc(OC)cc1	-23%
CCOC(=O)c1c(C)[nH]c(C(=O)COC(=O)CN2C(=O)C3CCCCC3C2=O)c1C (configuration not stated)	-5%
O/N=C/c1cn(-c2ccccc2)nc1-c1ccc2c(c1)OCCO2	-13%

# Remaining list, next part:
mol	HPGD inh
Cc1cc(O)c(-c2n[nH]c3c2C(c2cccc(O)c2)N(Cc2cccnc2)C3=O)cc1Cl (configuration not stated)	-2%
O=C1CCCCC1S(=O)(=O)c1ccccc1 (configuration not stated)	-3%
O=c1c2ccccc2n(Cc2ccc(F)cc2)c(=O)n1C1CCCC1	-12%
O=C(CCc1ccccc1)Nc1ccc(N2CCOCC2)cc1	-10%
CCSc1ccc2c(c1)N(CCCN1CCN(C)CC1)c1ccccc1S2	-5%
CCn1c(SCC(=O)OCC(=O)N2c3ccccc3NC(=O)C2(C)C)nnc1-c1ccco1	-13%
CCOC(=O)C1C(=O)NC(N2CCN(Cc3ccccc3)CC2)=NC1c1ccccc1 (configuration not stated)	-3%
C=CCn1c(SCC(=O)c2cc(C)n(CCOC)c2C)nc2sc(C)c(C)c2c1=O	?

# Some of these compounds in order of the HPGD inh value, high to low.
mol	HPGD inh
C/C(=N\NC(=O)c1cc(C(C)C)[nH]n1)c1ccco1	22µM*
CCOc1ccc(-c2csc(N)c2C(=O)OC)cc1	14µM*
COc1ccc(OCc2ccc(C(=O)N3CCOCC3)cc2)cc1	7.9µM*

# Returning to the listing, repeating the two entries before the break.
mol	HPGD inh
CCOC(=O)C1C(=O)NC(N2CCN(Cc3ccccc3)CC2)=NC1c1ccccc1 (configuration not stated)	-3%
C=CCn1c(SCC(=O)c2cc(C)n(CCOC)c2C)nc2sc(C)c(C)c2c1=O	?
O=C(/C=C/c1ccccc1Cl)Nn1cnc2ccccc2c1=O	-14%
O=C(Nc1ncc2c(n1)-c1ccccc1CC2)c1ccc(Cl)cc1	-22%
CC(=O)Nc1ccc(C(=O)Nc2ccc(S(=O)(=O)N3CCCC3)cc2)cc1	-9%
COc1ccc(CC(NC(=O)c2ccccc2)C(=O)NCC(=O)O)cc1 (configuration not stated)	-5%
O=C(Nc1ccccc1-c1ccccc1)c1ccc(NC(=O)c2ccco2)cc1	-7%
O=[N+]([O-])c1cnccc1Nc1ccc(F)cc1	-8%
COc1ccc2c(c1)[nH]c1c(=O)n(CCN(C)C)cnc12	-10%
COc1cc(/C=N/NC(=O)CCc2n[nH]c(=O)[nH]c2=O)ccc1O	-11%

# Later entries.
mol	HPGD inh
O=C(Nc1ccc(Br)cc1)C1CCN(C(=O)c2ccc(F)cc2)CC1	-5%
O=S(=O)(NC1CC1)c1ccc(S(=O)(=O)N2CCCC3(CCCCC3)C2)cc1	-3%
COc1ccc(C2=C(Nc3ccc(F)cc3)c3ccccc3C2=O)cc1	25µM*
Cc1cc(C(=O)NCC(=O)O)c(C)o1	-12%
COCCn1nnnc1C(CC(C)C)N1CCN(c2cccc(OC)c2)CC1 (configuration not stated)	-9%
Nn1cc(-c2ccccc2)nc1SCC(=O)Nc1ccc2c(c1)OCO2	-17%
CCCCC(=O)Nc1ccc2oc(-c3ccncc3)nc2c1	?
CCc1ccc(C2NC(=S)NC3=C2C(=O)CC(C)(C)C3)cc1 (configuration not stated)	-10%

# In the list so far, these contain a cyano group.
mol	HPGD inh
N#Cc1ccccc1NC(=O)CSc1nnc(-c2ccc(F)cc2)n1-c1ccccc1	-13%
CCOC(=O)CSC1=C(C#N)C(C)C2=C(CCCC2=O)N1 (configuration not stated)	-14%

# Other entries:
mol	HPGD inh
Cn1ncc2c(NCc3ccccc3)ncnc21	-28%
O=C1Cc2ccccc2C(c2ccc(Br)cc2)N1 (configuration not stated)	-4%
Cc1nc2nc(SCC(=O)NCc3ccco3)nn2c(C)c1Cc1c(F)cccc1Cl	-23%
Cc1c(C#N)c(N)c(C(=O)c2ccccc2)n1Cc1ccccc1	-8%
COC(=O)[C@@]1(C)C=C[C@@H](Cc2ccccc2)N1C	-9%
CCN(CC)C(=O)c1cnn(-c2ccccc2)c1NC(=O)c1ccco1	-17%
CCc1ccc(OCC(=O)NNC(=O)CSc2ncnc3sc(C)c(C)c23)cc1	-12%
CC(C)(C)c1ccc(C(=O)c2c[nH]c(C(=O)NCC3CCCO3)c2)cc1 (configuration not stated)	13µM*

# Next part.
mol	HPGD inh
Cn1nc(C(=O)OCC(=O)N2CCc3ccccc32)c2ccccc2c1=O	-11%
COc1ccc(/C=C2\N=C(SC)SC2=O)cc1OC	-14%
N#Cc1c(/N=C/c2cccs2)sc2c1CCCCC2	?
Cn1c(SCc2nc(-c3cccs3)no2)nnc1C1CCCCC1	4%
O=C(CN1CCN(Cc2ccc(Cl)cc2)CC1)N/N=C/c1ccncc1	1%
CCN(CC)S(=O)(=O)c1ccc(C(=O)OCn2nnc3ccccc3c2=O)cc1	-3%
COc1ccc2c(=O)cc(-c3ccccc3)oc2c1O	?
O=C(NCC1CCCO1)C(c1cccs1)N(Cc1cccs1)C(=O)Cn1nnc(-c2cccs2)n1 (configuration not stated)	-13%

# The listing continues.
Structure,HPGD inh
O=C(NCc1ccccn1)C1CCN(S(=O)(=O)N2CCCC2)CC1,0%
Cn1c(=O)cc(N)n(Cc2ccccc2)c1=O,-5%&-4%
Cc1ccc(NC(=O)C2CCN(S(=O)(=O)c3c(C)noc3/C=C/c3ccco3)CC2)nc1,-22%
CCc1nc(NCc2ccc3c(c2)OCO3)c2oc3ccccc3c2n1,-11%
CC(C)NC(=O)c1cc2c(-c3ccc(Cl)cc3)nn(C)c2s1,-28%
CCn1c(SCC(=O)NNC(=O)c2ccccc2)nnc1-c1ccncc1,-10%
Cc1ccc2nc(N3C(=O)C(O)=C(C(=O)c4cc5ccccc5o4)C3c3cccs3)sc2c1 (configuration not stated),-28%
CCOC(=O)C1C(=O)CC(C)(O)C(C(=O)OCC)C1c1cccc(OC(F)(F)C(F)F)c1 (configuration not stated),-5%
O=C(O)c1cc(NS(=O)(=O)c2ccc(N3CCOCC3)c([N+](=O)[O-])c2)cc(C(=O)O)c1,-3%
c1ccc(-n2c(-c3ccco3)nnc2-c2ccco2)cc1,?
CC1CN(c2oc(-c3ccco3)nc2C#N)CC(C)O1 (configuration not stated),?
CCOc1ccccc1Nc1nnc(SCc2ccc(C(=O)OC)o2)s1,-16%

# Continued.
Structure,HPGD inh
O=C(CCCCn1c(=O)[nH]c2ccsc2c1=O)NCc1ccc2c(c1)OCO2,-9%
O=C(/C=C/c1ccco1)Nc1cccc(NC(=O)/C=C/c2ccco2)n1,-13%
CCOc1ccc(-n2c(SCC(=O)NCc3ccco3)nnc2-c2c[nH]c3ccccc23)cc1,-10%
CCOC(=O)N1CCN(C(=O)c2oc3ccc(S(=O)(=O)N4CCOCC4)cc3c2C)CC1,-3%
Cc1cc(NC(=O)CSc2nnc(-c3cccnc3)n2C)no1,-6%
CCOC(=O)c1ccc(S(=O)(=O)NNC(=O)COc2ccccc2C)cc1,-9%
O=C(CSCC(=O)N1CCCc2ccccc21)Nc1nc(-c2ccccc2)cs1,-19%
Cc1nc2ncccn2c1-c1csc(Nc2ccccc2)n1,-19%
O=[N+]([O-])c1ccc(N2CCN(S(=O)(=O)c3ccccc3)CC2)cc1NCc1ccco1,-15%
O=C(COC(=O)c1cccs1)NCCC1=CCCCC1,18µM*
Cc1ccc(Cn2nnnc2CN2CCC(O)(c3ccc(F)cc3)CC2)cc1,-5%
Fc1ccc(CN2C3=NCCCN3c3ccccc32)cc1,-1%

# Next part; the last 4 above are carried over.
Structure,HPGD inh
O=[N+]([O-])c1ccc(N2CCN(S(=O)(=O)c3ccccc3)CC2)cc1NCc1ccco1,-15%
O=C(COC(=O)c1cccs1)NCCC1=CCCCC1,18µM*
Cc1ccc(Cn2nnnc2CN2CCC(O)(c3ccc(F)cc3)CC2)cc1,-5%
Fc1ccc(CN2C3=NCCCN3c3ccccc32)cc1,-1%
FC(F)(F)c1ccc(Oc2ccc3c(C(F)(F)F)cc(C(F)(F)F)nc3n2)cc1,-15%
CCN(CC)S(=O)(=O)c1cc(C(=O)O)ccc1Cl,-19%
Oc1ccc(-n2cnnn2)cc1,-7%
CCc1nnc(NC(=O)CSc2nc3c(cc2C#N)CCC3)s1,-27%
CCC1(C(=O)OC)NC(c2ccco2)C2C(=O)N(c3ccccc3)C(=O)C21 (configuration not stated),-5%
COc1cc(-c2csc(C)n2)ccc1O,2%
CC1=[N+]([O-])C(C)(C)C(C)N(O)C1=O (configuration not stated),-7%
COc1ccc(C)cc1NC(=O)C1CCCN(S(=O)(=O)c2cccc3nonc23)C1 (configuration not stated),-4%
O=C(/C=C/c1ccccc1Cl)NCCN1CCOCC1,-6%
CCCC(c1nnnn1Cc1cccs1)N1CCN(c2nc3ccccc3s2)CC1 (configuration not stated),-12%
CCn1c(CSc2nc3ccccc3s2)nnc1SCC(=O)c1ccc(Cl)cc1,-23%
COc1ccc(C(C)=O)cc1COc1ccc(-n2cnnn2)cc1,?

# Next entries follow:
Structure,HPGD inh
O=C(NCCCn1ccnc1)/C(=C\c1cccnc1)NC(=O)c1cccc(Br)c1,3%
CN1CCN(c2nc3c(c(=O)n(C)c(=O)n3C)n2CC(=O)C23CC4CC(CC(C4)C2)C3)CC1,-16%
Nn1c(COc2ccccc2)nnc1SCc1cc(=O)[nH]c2ccccc12,-9%
Cc1ccccc1NC(=O)CSC1=C(C#N)C(c2ccsc2)CC(=O)N1 (configuration not stated),0%
O=C(c1ccccc1)N1CCc2ccccc21,28µM*
CCOC(=O)c1csc(NC(=O)CSc2nnnn2CC)n1,-10%
COc1cccc(/C=N/NC(=O)c2ccc(=O)n(C)c2)c1OC,?
COc1ccc(CCN(C)C(=O)c2ccc(S(=O)(=O)NCc3ccco3)cc2)cc1OC,-10%
O=C(CCCn1c(SCC(=O)c2ccccc2)nc2ccccc2c1=O)NCC1CCCO1 (configuration not stated),-30%
CCn1c(=O)cc(N2CCCCC2)[nH]c1=O,-4%
COc1ccc(-n2c(Cc3cccn3C)nnc2SCC(=O)Nc2ccccc2OC)cc1,2%
Cn1c(SCC(=O)Nc2ccc3nc(SCC(=O)N4CCCC4)sc3c2)nnc1-c1ccc(N)cc1,8.9µM*

# More compounds.
Structure,HPGD inh
CCOC(=O)CN(Cc1sccc1C)C(=O)Nc1ccc(OC)cc1OC,-2%
Cc1ccc(C)c2[nH]c(=O)c(C(c3nnnn3CCc3ccccc3)N3CCOCC3)cc12 (configuration not stated),-17%
Nc1ncn(C2OC(CO)C(O)C2O)c(=O)n1 (configuration not stated),-3%
COc1cc(NC(=O)CN2CC(c3ccccc3)CC2=O)cc(OC)c1 (configuration not stated),1%
Cc1cc(O)c(/C=N/Nc2ccccc2)c(=O)o1,-30%
FC(F)(F)c1nnc2ccc(N3CCOCC3)nn12,-8%

# Source: PubChem
